# CtBP-E1A inh = blocks the CtBP interaction with E1A; AlphaScreen GST-E1A/His-CtBP binding, 1536-well; stronger effect = lower value; control for the full effect not named in the record; activity change, % (concentration not given with the values); 340,000 tested, 0.49% active; in the data active means activity change below about -65%; inconclusive means about -30% to -65%; inactive means above about -30%; further: on the % scale 0 is the no-effect control and ±100 the full control effect
#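 Protein mix (5X: 125 nM each GST-E1A, His-CtBP) was incubated with pinned compound 2 h at 37 deg C in dark, in 50 mM Tris pH 8.0 buffer with 300 mM NaCl. Glutathione donor and nickel acceptor beads followed; AlphaScreen signal read after 1 h.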
# D2 ag = human D2 receptor agonism in beta-arrestin assay | P14416 | DiscoveRx PathHunter D2 beta-arrestin, luminescence, 90 min; 100% = 57 uM dopamine signal | activation, % (test concentration not listed) | 360,000 tested, 0.084% active | AID 624465; in the data active = activation above about 40%; inconclusive = about 15% to 40%; inactive = below about 15%; further: compound concentration not given in the record; the text of the record calls up to 30% inactive
#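 DiscoveRx PathHunter D2 beta-arrestin cells (2,100/well) attached overnight, then compound-stimulated 90 min at 37 C in HBSS/10 mM HEPES/0.1% Tween-20 buffer; beta-galactosidase complementation read by luminescence after 1 h at ambient temperature. Dopamine 57 uM final (EC100) as control.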
# PINK1 expr mod = PINK1 expression modulation | Potency, µM (titrated, usually from 76.6 µM), for inactives: at the top dose activation (PINK1 increase), hits mostly activators | AID 624263 | PINK1 immunofluorescence, high-content cytometry, 24 h | 410,000 tested, 0.2% active; active = well fitted activation curve with a large enough effect; inconclusive = small, poorly fitted or top-dose-only effect; inactive = flat fitted curve, though single readings scatter; cell line not stated here;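 further: potency means the concentration at half of the fitted maximal effect; % of control where 0% means no effect; nearly all actives have a fitted effect of over 65% in size; a mitochondrial uncoupler was the plate control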
#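 Measures PINK1 amount and localization on or inside mitochondria by immunofluorescence. Stable cells get compounds at 5 concentrations for 24 hours before fixation and staining; CCCP controls included.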
# Six1-Eya2 inh = Six1/Eya2 interaction inhibition; 360,000 tested, 0.56% active; AID 651725; AlphaScreen GST-Six1/His-Eya2 binding, biochemical; stronger effect = lower value; control for the full effect not named in the record; activity change, % (no concentration beside the values); in the data active = activity change below about -65%; inconclusive = about -30% to -65%; inactive = above about -30%; further: on the % scale 0 is the no-effect control and ±100 the full control effect; compound concentration not given in the record
# Target sequence (O00167 whole entry, looked up): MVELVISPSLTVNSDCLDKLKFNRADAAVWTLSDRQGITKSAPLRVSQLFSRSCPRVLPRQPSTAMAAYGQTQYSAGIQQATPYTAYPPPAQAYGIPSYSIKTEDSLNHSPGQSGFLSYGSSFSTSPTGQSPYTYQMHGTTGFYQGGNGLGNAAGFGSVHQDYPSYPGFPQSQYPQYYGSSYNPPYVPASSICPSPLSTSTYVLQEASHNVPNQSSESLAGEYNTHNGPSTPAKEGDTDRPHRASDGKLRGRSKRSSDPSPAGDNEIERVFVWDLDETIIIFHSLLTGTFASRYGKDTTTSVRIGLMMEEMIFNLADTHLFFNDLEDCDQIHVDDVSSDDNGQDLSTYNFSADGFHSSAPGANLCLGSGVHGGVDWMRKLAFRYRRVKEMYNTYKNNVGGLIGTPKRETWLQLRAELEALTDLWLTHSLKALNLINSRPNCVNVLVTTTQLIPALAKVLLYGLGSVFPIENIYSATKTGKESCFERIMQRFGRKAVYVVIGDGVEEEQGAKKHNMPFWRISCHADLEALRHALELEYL
# Target sequence (Q15475 whole entry, looked up): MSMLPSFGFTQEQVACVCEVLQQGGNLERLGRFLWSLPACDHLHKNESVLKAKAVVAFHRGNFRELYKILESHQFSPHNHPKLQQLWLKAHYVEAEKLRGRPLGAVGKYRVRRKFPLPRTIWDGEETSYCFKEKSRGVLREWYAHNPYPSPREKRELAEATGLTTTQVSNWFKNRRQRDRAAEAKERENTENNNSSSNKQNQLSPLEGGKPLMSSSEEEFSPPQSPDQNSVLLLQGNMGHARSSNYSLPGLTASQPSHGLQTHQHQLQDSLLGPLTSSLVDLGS
#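 Homogeneous AlphaScreen proximity assay pairing GST-Six1 with His-tagged Eya2 (added as 5X mix: 250 nM and 500 nM) in 50 mM Tris pH 8.0, 300 mM NaCl, 1 mM TCEP. Glutathione donor and nickel acceptor beads; 1 h, 37 °C, dark.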
# D2 PAM = potentiates the human D2 dopamine receptor allosterically. P14416. DiscoveRx D2 beta-arrestin cells, luminescence, 90 min; 100% = 57 uM dopamine signal. potentiation, % (concentration not given with the values). 360,000 tested, 0.23% active. AID 624464; active = potentiation of 50% or more; inconclusive = 30% to 50%; inactive = 30% or less;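 further: compound concentration not given in the record; tested on top of an EC20 dose of dopamine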
#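 D2 cells co-treated with compound plus 50 nM dopamine (EC20) for 90 min at 37 deg C to detect potentiation. Beta-arrestin recruitment was read as enzyme-fragment luminescence after 1 h at ambient temperature. Full response was set by 57 uM dopamine.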
# TRPML1 ag = agonists of human TRPML1 channel | Q9GZU1 | TRPML1-expressing cells, Ca2+ dye fluorescence, FDSS; host cell line not named in the record; reference of the full effect not given here | activation, % (test concentration not listed) | 410,000 tested, 0.12% active | AID 624414; in the data active = activation above about 50%; inconclusive = about 30% to 50%; inactive = below about 30%; further: 0% is about no effect; the text of the record puts the active cut at 80%
#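 Cells: TRPML1-DL, 1X Tet inducer, ~16 h at 37 degrees C/5% CO2. Dye: ABD Ca8 no-wash + quencher, 45-90 min RT. Read: 10 s baseline, compound add, 110 s agonist phase; 54-4 EC80 (4uM final), 110 s antagonist phase.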
# The depositor's hits bear a star; ? = inconclusive; nt = no result given; & = joins results of further samples; [ ] = dose if it differs, or a comment.
SMILES,CtBP-E1A inh,D2 ag,PINK1 expr mod,Six1-Eya2 inh,D2 PAM,TRPML1 ag
CCCCCCCCCOC(=O)C(CC(=O)O)N1CCOCC1 (stereo unspecified),7,-0.7,1.0%,5,13,-0.5
N/C(=N\OC(=O)c1csnn1)c1ccc(C(F)(F)F)cc1,5,-1.4,3.4%,-1,-2,1.1
COc1ccccc1Oc1ccc(N2CC(C(=O)OCC(=O)c3ccc(F)cc3)CC2=O)cc1 (stereo unspecified),4,-0.6,2.8%,-3,8,0.0
CC1CCCCC12NC(=O)N(Cn1nnc3ccccc3c1=O)C2=O (stereo unspecified),-1,-0.5,-0.4%,15,1,-0.6
CNCCOc1nc(N2CCOCC2)nc(C)c1[N+](=O)[O-],1,-0.7,-0.4%,5,-4,0.1
COc1ccc(S(=O)(=O)N2CCc3ccccc32)cc1C(=O)NCCc1ccccn1,-1,-4.0,0.8%,13,-6,-1.5
Cc1nc2ccc(S(=O)(=O)NCC(=O)N3CCOCC3)cc2s1,-1,-0.6,0.3%,15,15,1.2
Cc1ccc(N(C)S(=O)(=O)c2cccc(C(=O)OCC(=O)N3CCCC(C)C3)c2)cc1 (stereo unspecified),-3,-2.2,0.9%,2,-23,1.4
C[C@]12c3[nH]c4cc(-c5ccco5)ccc4c3CCN1C(=O)[C@@H](CC(=O)NCCc1ccccn1)C[C@@H]2C(=O)N1CCOCC1,0,2.2,-0.7%,-5,4,2.9
CC(C)n1c(SCC(=O)N2CCCC2)nc2c1c(=O)n(C)c(=O)n2C,0,0.6,-1.0%[38.3 µM],-2,1,0.2

# Profiles from above:
# `CC1CCCCC12NC(=O)N(Cn1nnc3ccccc3c1=O)C2=O` (stereo unspecified) across the screens: CtBP-E1A inh: -1; D2 ag: -0.5; PINK1 expr mod: -0.4%; Six1-Eya2 inh: 15; D2 PAM: 1; TRPML1 ag: -0.6
# `Cc1ccc(N(C)S(=O)(=O)c2cccc(C(=O)OCC(=O)N3CCCC(C)C3)c2)cc1` (stereo unspecified) across the screens: CtBP-E1A inh: -3; D2 ag: -2.2; PINK1 expr mod: 0.9%; Six1-Eya2 inh: 2; D2 PAM: -23; TRPML1 ag: 1.4

# Next section.
SMILES,CtBP-E1A inh,D2 ag,PINK1 expr mod,Six1-Eya2 inh,D2 PAM,TRPML1 ag
Cc1ccc(NC(=O)c2cc(S(=O)(=O)N3CCCCC3)c[nH]2)cc1F,-11,-2.1,1.7%&1.3%,9,-7,0.2&1.7
CSC1=NC2(CCCCC2)C2=C(CCCC2)N1,1,-2.9,nt,10,-6,0.1
O=C(NCc1ccc(F)cc1)c1cc2c(cc1Cl)N1CCCCCC1=NS2(=O)=O,-5,-1.5,-0.1%,0,-2,0.0
CN(Cc1cccs1)C(=O)COC(=O)CNC(N)=O,10,-0.7,1.2%,3,-2,2.3
CN(C)S(=O)(=O)c1ccc(NC(=O)CSc2nnc(-c3ccco3)n2N)cc1,-10,-2.9,1.1%,2,-4,0.9
O=C1N/C(=N/NC(=O)c2cccc3ccccc23)S/C1=C\c1ccccc1OCc1ccccc1,-1,-5.4,-1.5%,-12,-6,0.4
Cc1ccc2cc(C(c3nnnn3C3CCCC3)N(Cc3ccccc3)Cc3ccco3)c(=O)[nH]c2c1 (stereo unspecified),1,-0.7,nt,2,-14,1.1
CCCC(=O)Nc1ccc2c(c1)COC2=O,5,-2.5,-2.2%,45,-3,-0.5
COc1cc(C(C)=O)ccc1Oc1ncccn1,21,-1.9,-0.4%,1,-1,-0.1
COc1ccc(NC(=O)C2(C)CCN2Cc2ccc(OC(C)C)cc2)cc1OC (stereo unspecified),-3,2.9,-0.7%,-5,-3,-1.3
COc1cccc(C(NC(C)=O)c2nc(-c3ccccc3C)cs2)c1 (stereo unspecified),1,78*,0.1%,4,-3,-0.4
CCOC(=O)C1=C(CC)Nc2ccccc2N/C1=N\S(=O)(=O)c1ccc(C(=O)OCC)cc1,-11,-1.6,0.0%,4,2,-0.3
C[C@@H](NC(=O)c1[nH]cnc1C(=O)Nc1ccc(Cl)cc1)c1ccccc1,nt,-4.4,-0.3%,3,-13,1.7
CCC(CC)NC(=O)COC(=O)c1cc(SC)ccc1Cl,0,-5.1,3.6%,3,-7,0.1
COC(C/C=C\[C@@H](O)[C@H](C)OCc1ccccc1)OC,-5,-2.4,0.6%,9,-12,0.2
CC(C)CC(=O)Nc1cc([N+](=O)[O-])ccc1Cl,-9,-2.7,4.0%[38.3 µM],-14,5,0.5
CCOc1ccccc1C(O)C1=CC(=O)c2ccccc2C1=O (stereo unspecified),0,1.5,20%,-22,58*,0.1
Cc1ccc(NCc2nnc(SCC(N)=O)o2)c(C)c1,-9,-7.4,2.8%,14,-3,0.1
O=C(COCCOCC(=O)N(c1ccccn1)C1CCCCC1)N(c1ccccn1)C1CCCCC1,5,3.2,0.1%,7,0,-0.7
Cc1ccc(-c2csc(N3CCN(c4cc5c(cc4Cl)nc(C(C)N)n5CCCO)CC3)n2)cc1 (stereo unspecified),3,-7.6,0.4%,4,-2,-0.2
O=C(NC1CC1)c1cccc(NC(=O)c2cnn(-c3ccccc3)n2)c1,11,-0.2,1.6%,-15,-25,2.2
Cc1cc(OC(C)C(=O)NCc2cccnc2)c2c(C)cc(=O)oc2c1 (stereo unspecified),2,5.0,0.9%,0,0,0.9
CNC(=O)c1cc2c(-c3ccccc3)nn(C)c2s1,-24,-0.9,1.6%,?,-3,0.6
OCc1ccnc2oc3ccccc3c12,9,-3.7,0.4%,4,-3,-0.4
O=C(OCc1cn([C@H]2CN(Cc3cccs3)[C@@H](c3ccc(Cl)cc3)C[C@@H]2O)nn1)c1ccccc1,5,-1.9,3.6%,-3,7,0.2
O=C(CN1CCN(S(=O)(=O)c2ccc3c(c2)OCCO3)CC1)Nc1ccccc1Br,3,5.3,2.1%,10,0,2.1
Cc1oc(-c2ccc(Cl)cc2)nc1CS(=O)CC(=O)NC1CCCC1 (stereo unspecified),0,-3.6,0.9%,-2,-9,-1.1
Cc1ccc(NC(=S)N(Cc2ccco2)C(C)c2cccs2)c(Cl)c1 (stereo unspecified),2,-6.5,5.9%,-4,5,1.5
COc1ccc(NC(=O)COC(=O)c2ccc(OCc3ccccc3Cl)c(OC)c2)c(OC)c1,8,0.3,4.1%,3,-2,0.2
CC1(C)CC(=S)Nc2ccccc2S1,3,-3.5,-1.7%,-5,-18,0.7
Cc1cc(=O)[nH]c(N/N=C/c2ccc(F)cc2)n1,-13,-1.5,2.3%,-12,-9,-0.7
O=C(NCCN1CCOCC1)C1CCC(=O)N1C1CCCCC1 (stereo unspecified),10,-1.3,1.3%[38.3 µM],2,-6,0.7
COCCNc1nc2nonc2nc1N1C[C@H]2CC[C@H]1C2,-2,-3.8,3.3%,8,-1,-0.9
CC(NC(=O)c1ccccc1NC(=O)c1ccco1)c1ccccc1 (stereo unspecified),1,-2.6,nt,0,-5,0.3
O=C(Nc1ccc(OC(=O)c2ccncc2)cc1)c1ccncc1,-7,-2.3,1.3%,1,-5,-0.2
O=C(NC(Cc1ccccc1)c1ccc2c(c1)OCCCO2)c1ccccc1F (stereo unspecified),6,-2.2,-0.9%[38.3 µM],0,-9,0.5
COc1ccc(-c2cc3c(=O)n(CC(=O)Nc4ccc(Cl)cc4)ncn3n2)cc1,2,-1.4,3.8%,16,14,-0.3
Cc1nn(CC(=O)N2CCN(c3ccc(Cl)cc3)CC2)c(=O)c2cccn12,1,-4.1,3.6%&-0.1%,5,-2,-0.1&-0.4
CCNc1c(NC(=O)COc2ccc(Cl)cc2)c(=O)oc2ccccc12,-3,-0.3,-1.2%,0,-2,0.9
CCCC(O)(c1ccc(Cl)cc1)C(CN1CCOCC1)c1ccccc1 (stereo unspecified),-2,1.6,14%,-21,-4,-1.0

# Shown as a hit in D2 ag, of those listed so far:
SMILES | CtBP-E1A inh | D2 ag | PINK1 expr mod | Six1-Eya2 inh | D2 PAM
COc1cccc(C(NC(C)=O)c2nc(-c3ccccc3C)cs2)c1 (stereo unspecified) | 1 | 78* | 0.1% | 4 | -3

# Remaining list, next part
SMILES,CtBP-E1A inh,D2 ag,PINK1 expr mod,Six1-Eya2 inh,D2 PAM,TRPML1 ag
Brc1ccc(CNc2cc3c(cc2Br)OCCO3)cc1,-20,-3.4,9.3%,?,-3,0.5
Nc1cnn(C2OC(CO)C(O)C2O)c(=O)n1 (stereo unspecified),-1,-4.0,3.9%,4,-9,-0.4
O=C(Nc1ccncc1)Nc1cc(Cl)ccc1Cl,-7,6.2,1.7%,-2,-42,1.2
COc1ccc(-c2nc3nc(SC)nn3cc2C)cc1F,-19,13,4.4%,-2,6,0.0
C=CCOc1ccc(C=Nc2ccc(OC)cc2)c(O)c1,11,2.2,0.7%,7,2,-0.6
Cc1snc(S(=O)(=O)/C(C#N)=N/Nc2cccc(C(F)(F)F)c2)c1C#N,-16,-4.1,1.6%,-17,15,0.0
COC(=O)c1cc(C)sc1NC(=O)c1cccnc1,5,0.8,0.7%[38.3 µM],6,-9,-0.9
COCC(=O)N1CCc2ccc(NC(=O)c3ccc(C(F)(F)F)cc3)cc2C1,8,-1.5,0.9%,-6,-1,-0.6
Cc1ccccc1S(=O)(=O)NC(=O)C1(C)CCN1C(=O)Cc1ccc(C(C)(C)C)cc1 (stereo unspecified),11,0.8,-0.7%,8,-10,-0.1
COc1ccc(C(=O)COC(=O)C(O)c2ccccc2)c(OC)c1 (stereo unspecified),nt,-3.6,0.5%,-6,3,-0.1
CN(Cc1cn[nH]c1-c1cc2ccccc2o1)CC1CCOCC1,2,-2.8,0.3%,-2,-14,-0.7
Cc1nc2ccccc2cc1C(=O)Nc1ccccc1Cl,3,-3.1,3.5%,-1,-6,-0.4
CCOC(=O)c1csc(NC(=O)CSc2nnnn2-c2ccc3c(c2)OCCO3)n1,-10,0.9,2.2%,3,-10,5.4
CCCNC(=O)c1ccc2c(c1)S(=O)(=O)c1ccccc1C2=O,-18,-4.3,-1.0%,-9,1,1.4
CN(Cc1nc2ccc(F)cc2[nH]1)C(=O)C1CCC(=O)N(C2CC2)C1 (stereo unspecified),5,-7.6,2.1%,1,-17,-0.1
CC1CCCC(C)N1C(=O)C1CCCCC1 (stereo unspecified),10,-5.1,4.1%,5,-9,0.1
COc1ccc(OC)c(/C=N/NC(=O)CCc2n[nH]c(=O)[nH]c2=O)c1,-19,-0.3,-2.7%,-10,-7,4.2
CC1ON=C(c2cccc3ccccc23)N(C)C1=O (stereo unspecified),6,-3.1,0.2%,-3,0,-1.0
CCc1nnc(NC(=O)CSc2nnc(-c3ccncc3)n2C)s1,0,-2.7,-1.4%,2,-5,-0.1
COc1ccc(OC)c(CNC(=O)Cc2c(C(=O)O)[nH]c3ccccc23)c1,1,0.4,nt,-2,-4,-0.4
NC(=O)CC(NC(=O)Cc1ccc(Cl)cc1)c1ccc(N2CCN(c3ccccn3)CC2)c([N+](=O)[O-])c1 (stereo unspecified),0,0.6,-0.6%,8,-7,-0.3

# Screening data from PubChem.
